Methyltransferases = Primary Screen for Target Class Profiling of Small Molecule Inhibitors of Methyltransferases; calls only at 40 µM; hit rate 3.9% among 25,000; AID 1745853, 2022; purified enzyme, MTase-Glo SAH luminescence; hits give low values; active = -50% or lower on at least one of six enzymes; inconclusive = the cases between; inactive = as a rule above -30% on all six;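 further: enzymes were COMT GAMT GNMT HNMT NNMT and PNMT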
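Each enzyme was reacted with SAM and its substrate, with compounds tested once at 40 uM; SAH formed was read by MTase-Glo luminescence.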
Calls only; i = inactive; ? = inconclusive; + = active, no number. On the % scale 0 is the no-effect control and ±100 the full control effect. Only part of the results is shown; rates above refer to the full screens.

SMILES	Methyltransferases
CC1OC(OC2C(OC3C(O[C@H]4CC[C@@]5(C)C(CC[C@]6(C)C5C(=O)C=C5C7CC(C)(C)CC(O)[C@]7(C)CC[C@]56C)C4(C)C)OC(C(=O)O)C(O)C3O)OCC(O)C2O)C(O)C(O)C1O (stereo partly drawn)	i
COc1ccccc1N1C(=O)c2cc3ccccc3n2CC1(C)C(=O)NC1CCCCC1 (stereo not drawn)	i
CC1=CC(=O)C2C(C)(C)CCC[C@]2(C)[C@H]1CC[C@H](C)CC(=O)O (stereo partly drawn)	i
CC(=O)C1=C(C)N(c2cccc(C(F)(F)F)c2)C(=O)N[C@H]1c1ccc(C#N)nc1	?
COc1ccc(CCNc2nc3c(S(=O)(=O)c4ccccc4)nnn3c3ccc(Cl)cc23)cc1OC	i
Cc1ccc(CN2C(=O)c3nc4ccccc4n3CC2(C)C(=O)NCCC(C)C)cc1 (stereo not drawn)	i
COc1ccc2c(c1)C(=O)N(CCc1ccc(S(=O)(=O)NC(=O)NC3CCCCC3)cc1)C(=O)C2(C)C	i
CN[C@@H]1[C@H](O[C@H]2[C@H](O[C@@H]3[C@@H](O)[C@H](O)[C@@H](N=C(N)N)[C@H](O)[C@H]3N=C(N)N)O[C@@H](C)[C@]2(O)C=O)O[C@@H](CO)[C@H](O)[C@H]1O	i
NC(=O)N1c2ccccc2C=Cc2ccccc21	i
Cn1c(=O)c2ccc(C(=O)NC3CCCC3)cc2n2c(=O)n(CC(=O)NCc3ccccc3)nc12	i
O=C(NCc1ccc2c(c1)CCCO2)c1ccc(C2CCNC2)cc1 (stereo not drawn)	?
CCOC(=O)c1cc2n(n1)CC(C)(C(=O)NC1CCCC1)N(c1ccc(C)c(Cl)c1)C2=O (stereo not drawn)	i
COc1ccc([C@@H](NC(=O)c2coc3ccccc23)C2CC(O)C2)cn1 (stereo partly drawn)	i
CC(C)N1C[C@H](O)C[C@H]1c1nnc2n1CCN(C(=O)c1ccco1)CC2	i
O=C(Cn1nc2n(CCc3ccccc3)c(=O)c3ccccc3n2c1=O)Nc1cccc(Cl)c1	i
CN1c2cc(C(N)=O)ccc2C(=O)N2CCCC21 (stereo not drawn)	i
C=CCc1ccc(O[C@@H]2O[C@H](CO[C@@H]3O[C@@H](C)[C@H](O)[C@@H](O)[C@H]3O)[C@@H](O)[C@H](O)[C@H]2O)cc1	i
COC(=O)c1ncn2c1C(=O)N(c1cc(C)ccc1C)C(C)(C(=O)NC1CCCCCC1)C2 (stereo not drawn)	i
NC(=O)CN1C(=O)[C@@H]2CN(C(=O)c3cccs3)CCN2C1=O	i
Cn1c(=O)c2ccc(C(=O)NC3CCCCC3)cc2n2c(=O)n(CC(=O)NC(C)(C)C)nc12	i
COc1cc(Nc2nc3ccccc3nc2NS(=O)(=O)c2ccc(NC(=O)c3ccc(C)c(OC)c3)cc2)cc(OC)c1	?
Cn1ccc2c(C(=O)NCCc3cnc[nH]3)nc(-c3ccc(N4CCOCC4)cc3)cc21	+
CC1=CC(=O)CC(C)(C)C1/C=C/C(C)O[C@@H]1O[C@H](CO)[C@@H](O)[C@H](O)[C@H]1O[C@@H]1OC[C@](O)(CO)[C@H]1O (stereo partly drawn)	i
CCC(C)NC(=O)c1ccc2c(=O)n(C)c3nn(Cc4ccccc4C)c(=O)n3c2c1 (stereo not drawn)	i
COc1cc2nc(N3CCCN(C)CC3)nc(NC3CCN(Cc4ccccc4)CC3)c2cc1OC	+

More structures follow:
SMILES	Methyltransferases
CCCN1C(=O)c2cc(C(=O)NCc3ccc4c(c3)OCO4)nn2CC1(C)C(=O)NC1CCCC1 (stereo not drawn)	i
CCO[C@H]1CN(C2CCC(O)(c3ccc4c(c3)OCO4)CC2)C[C@@H]1NC(=O)CNC(=O)c1cccc(C(F)(F)F)c1 (stereo partly drawn)	i
CCOC(=O)c1cc2n(n1)CC(C)(C(=O)NCc1ccccc1)N(Cc1ccc(Cl)cc1)C2=O (stereo not drawn)	i
O=C(Nc1cccnc1)N1CCC(Cc2cccc(Oc3ccc(C(F)(F)F)cn3)c2)CC1	i
COc1ccc(CCC(=O)N2CCOCCNC(=O)CC2)cc1	i
CCC(C)NC(=O)c1ccc2c(=O)n(C3CC3)c3nn(CC(=O)Nc4cccc(F)c4)c(=O)n3c2c1 (stereo not drawn)	i
O=C(N1CC(Oc2ccc(-c3noc(-c4ccccc4)n3)cc2)C1)C1(c2ccccc2)CC1	i
CC1CCC(NC(=O)CCc2nnc3n(CCc4ccccc4)c(=O)c4ccccc4n23)CC1 (stereo not drawn)	i
COc1ccc(C(=O)N2CCC(Cn3c(C)cnc3C3CCC3)CC2)c(OC)c1	i
COc1ccc(OC)c(CCNC(=O)CCc2nnc3n(Cc4ccccc4Cl)c(=O)c4ccccc4n23)c1	i
Cc1nn(C)cc1C(=O)N1C[C@@H](CO)[C@H](c2ccncc2)C1	i
CC1(C(=O)Nc2ccc(F)nc2)CCCN1c1nc(Nc2cc(C3CC3)[nH]n2)c2cccn2n1 (stereo not drawn)	i
CC[C@H]1OC(=O)[C@H](C)[C@@H](O[C@H]2C[C@@](C)(OC)[C@@H](O)[C@H](C)O2)[C@H](C)[C@@H](O[C@@H]2O[C@H](C)C[C@H](N(C)C)[C@H]2O)[C@@](C)(O)C[C@@H](C)[C@@H]2N[C@@H](COCCOC)OC([C@H]2C)[C@]1(C)O	i
CCCSCCCNC(=O)c1cc2n(n1)CC(C)(C(=O)NC1CCCCCC1)N(C)C2=O (stereo not drawn)	i
CC(c1cccs1)N(C)C(=O)c1ccccc1Cl (stereo not drawn)	i
CC(C)(CO)Cc1cc(C(C)(C)C)c(O)c(C(C)(C)C)c1	i
CCCn1c(=O)c2ccc(C(=O)NC3CCCC3)cc2n2c(=O)n(Cc3ccccc3)nc12	i
CCCn1c(=O)c2ccccc2n2c(SCC(=O)Nc3ccc(C(C)C)cc3)nnc12	i
COc1ccc(-c2cc3n(n2)CC(C)(C(=O)NCc2ccccc2)N(CCc2ccc(SC)cc2)C3=O)cc1 (stereo not drawn)	i
Cc1cc2c(cc3n2CC(C)(C(=O)NC2CCCCCCC2)N(Cc2ccccc2C)C3=O)o1 (stereo not drawn)	i
CCOc1ccc(N2C(=O)c3cc4sccc4n3CC2(C)C(=O)NC2CCCCCCC2)cc1 (stereo not drawn)	i
Cc1nc(C(=O)N2CC[C@H](NS(=O)(=O)c3cn(C)cn3)C[C@H]2C(=O)N[C@H](Cc2ccccc2)C(N)=O)cs1	i
CCc1ccc(N2C(=O)c3c(C(=O)OC)ncn3CC2(C)C(=O)NC2CCCCCC2)cc1 (stereo not drawn)	i
CC(C)(O)c1ccn2c(-c3ccc(F)c(-c4ccc(F)cc4C#N)c3)cnc2c1F	?
CCCCCCCCCCC/C=C\C(C)(C)/C=C\CCCC(=O)O	i

Sorted by formula weight (rising): part of the list above
SMILES	Methyltransferases
CC(C)(CO)Cc1cc(C(C)(C)C)c(O)c(C(C)(C)C)c1	i
COc1ccc(C(=O)N2CCC(Cn3c(C)cnc3C3CCC3)CC2)c(OC)c1	i
CCCn1c(=O)c2ccc(C(=O)NC3CCCC3)cc2n2c(=O)n(Cc3ccccc3)nc12	i
CCc1ccc(N2C(=O)c3c(C(=O)OC)ncn3CC2(C)C(=O)NC2CCCCCC2)cc1 (stereo not drawn)	i
CCOc1ccc(N2C(=O)c3cc4sccc4n3CC2(C)C(=O)NC2CCCCCCC2)cc1 (stereo not drawn)	i
CCCN1C(=O)c2cc(C(=O)NCc3ccc4c(c3)OCO4)nn2CC1(C)C(=O)NC1CCCC1 (stereo not drawn)	i
Cc1nc(C(=O)N2CC[C@H](NS(=O)(=O)c3cn(C)cn3)C[C@H]2C(=O)N[C@H](Cc2ccccc2)C(N)=O)cs1	i

In the list so far, these have an aryl thioether with sulfur outside any ring:
SMILES	Methyltransferases
CCCn1c(=O)c2ccccc2n2c(SCC(=O)Nc3ccc(C(C)C)cc3)nnc12	i
COc1ccc(-c2cc3n(n2)CC(C)(C(=O)NCc2ccccc2)N(CCc2ccc(SC)cc2)C3=O)cc1 (stereo not drawn)	i

Remaining list, next part
SMILES	Methyltransferases
COc1ccc(-c2cc3n(n2)CC(C)(C(=O)NCc2ccccc2OC)N(c2cccc(OC)c2)C3=O)cc1 (stereo not drawn)	i
C=CC(C)(O)CC/C=C(\C)C(=O)OC1CC2(C(=O)O)CCC3(C)C(=CCC4C5(C)CCC(OC6OC(COC7OCC(O)C(O)C7O)C(O)C(OC7OCC(O)C(O)C7O)C6OC6OC(CO)C(O)C(O)C6OC6OCC(O)C(O)C6O)C(C)(C)C5CCC43C)C2CC1(C)C (stereo not drawn)	i
COc1ccccc1CNC(=O)C(C)n1ccc2cc(S(=O)(=O)N3CCCC3)ccc21 (stereo not drawn)	i
COc1ccc(CNC(=O)C2(C)Cn3cnc(C(=O)NCCc4ccc(C)cc4)c3C(=O)N2C2CC2)cc1 (stereo not drawn)	i
Cn1c2c(c3ccccc31)C(C(=O)NCc1ccccc1)N(c1ccc(Cl)cc1)C(=O)CS2 (stereo not drawn)	i
CCOCCOC1CCN(C(=O)c2cccc3[nH]ccc23)CC1	i
Cc1ccc(C)c(C(=O)Cn2nc3n(Cc4ccc(F)cc4)c(=O)c4ccccc4n3c2=O)c1	i
CC(O)/C=C/C1(O)C(C)C(O[C@@H]2O[C@H](CO)[C@@H](O)[C@H](O)[C@H]2O)C(O)CC1(C)C (stereo partly drawn)	i
CC1(C(=O)NC2CCCC2)Cn2c(cc3sccc32)C(=O)N1CCCc1ccccc1 (stereo not drawn)	i
CNC(=O)c1ccccc1Nc1nc(Nc2ccc3c(c2OC)CCC[C@H](N2CCN(CCO)CC2)C3)ncc1Cl	?
CCOc1ccccc1CN1C(=O)c2cc3ccccc3n2CC1(C)C(=O)NCc1ccccc1OC (stereo not drawn)	i
CCOc1ccc(NC(=O)N2Cc3c(sc4c3CCCC4)-n3cccc3C2c2cccc(F)c2)cc1 (stereo not drawn)	i
CC(C)NC(=O)N1Cc2c(sc3c2CCCC3)-n2cccc2C1c1ccccc1 (stereo not drawn)	i
O=S(=O)(NCc1ccc(F)cc1)c1ccccc1-c1nc(-c2ccc(F)cc2)no1	i
COCc1nc(CCNC(=O)C2CC2)no1	i
CC1(C(=O)NC2CCCCC2)Cn2c(ccc2-c2ccco2)C(=O)N1CCCc1ccccc1 (stereo not drawn)	i
CCOC(=O)c1cc2n(n1)CC(C)(C(=O)NC1CCCCC1)N(Cc1ccc(OCC)cc1)C2=O (stereo not drawn)	i
CCCC1c2cccn2CCN1C(=O)Nc1ccccc1Cl (stereo not drawn)	?
C=CCn1c(=O)c2ccc(C(=O)NC(C)C)cc2n2c(=O)n(CC(=O)Nc3cccc(C)c3)nc12	i
COc1ccccc1CNC(=O)C(C)n1ccc2cc(S(=O)(=O)N3CCCCC3)ccc21 (stereo not drawn)	i
COc1ccccc1-c1cc(C(=O)N2CCN(c3ncccn3)CC2)nn2cccc12	i
COC(=O)C12C(=O)C(C)=C(O)C1(C)C(C)=CC1C3(CO)CCC(O)C(C)(C)C3CCC12C (stereo not drawn)	i
O[C@H]1CC[C@@H](Cc2cc(CN3CCCCC3)on2)O[C@@H]1CNCc1cccnc1	i
O=C1CCCCC(C(=O)NCCc2ccncc2)N1 (stereo not drawn)	i
COc1cccc(-n2c(=O)[nH]c3cc(Cl)n(-c4ccc(-c5cccc(OC)c5O)cc4)c3c2=O)c1	?

Further results follow:
SMILES	Methyltransferases
CC(=O)Nc1ccc(C2(C(=O)NCc3cccs3)CCCCC2)cc1	i
CCN(CC)CCCN1C(=O)c2cc3occc3n2CC1(C)C(=O)NC1CCCCCCC1 (stereo not drawn)	i
Cn1c(CCNC(=O)CC2CCOCC2)nc2ccccc21	i
COC(=O)c1cc2n(n1)CC(C)(C(=O)NC1CCCC1)N(c1ccc(Cl)cc1C)C2=O (stereo not drawn)	i
CCCSCCCN1C(=O)c2cc3occc3n2CC1(C)C(=O)NC1CCCCCC1 (stereo not drawn)	i
COc1cccc(CN2C(=O)c3ccc(-c4ccco4)n3CC2(C)C(=O)NC2CCCCCC2)c1 (stereo not drawn)	i
Cc1noc(C)c1S(=O)(=O)N1C[C@@H](C(=O)O)[C@H](c2ccccn2)C1	i
CCN1C(=O)CCc2cc(NC(=O)c3ccc(F)cc3)ccc21	i
CCCN1C(=O)c2c(C(=O)NCc3ccccc3OC)ncn2CC1(C)C(=O)NCCC(C)C (stereo not drawn)	i
COc1cc(C(=O)OC[C@@]2(O)CO[C@@H](O[C@H]3[C@H](Oc4ccc(O)cc4)O[C@H](CO)[C@@H](O)[C@@H]3O)[C@@H]2O)cc(OC)c1O	i
COc1ccccc1CNC(=O)CCc1nnc2n(CCc3ccccc3)c(=O)c3ccccc3n12	i
Cn1c(=O)c2ccc(C(=O)NC3CCCC3)cc2n2c(=O)n(CC(=O)NC3CCCCC3)nc12	i
Oc1ccc2c(-c3c(-c4ccccn4)nn4c3CCC4)ccnc2c1	i
COc1ccc(NC(=O)Cn2nc3n(Cc4ccc(F)cc4)c(=O)c4ccccc4n3c2=O)cc1OC	i
CCCNC(=O)N1CCC(n2c(C)cnc2C2CCOCC2)CC1	i
Cc1cc(C2CCCN2C(=O)c2ccnn2C)on1 (stereo not drawn)	i
CCOCCCNC(=O)c1cc2n(n1)CC(C)(C(=O)NC1CCCC1)N(CC)C2=O (stereo not drawn)	i
CCC(C)NC(=O)c1ccc2c(=O)n(C)c3nn(CC(=O)Nc4ccc(C(C)C)cc4)c(=O)n3c2c1 (stereo not drawn)	i
COc1ccc(-c2nc3c(c(=O)[nH]2)CCN(S(=O)(=O)C2CC2)C3)cc1	i
O=c1c2ccccc2n2c(-c3cc(Br)cs3)nnc2n1CCc1ccccc1	i
Cc1cc(C(C)Nc2ccccc2)c2nc(N3CCOCC3)cc(=O)n2c1 (stereo not drawn)	i

Screening data (PubChem BioAssay)
